# Screening data (PubChem BioAssay)
# NPYLR7 agonist = agonists of mosquito NPYLR7 receptor, primary screen, cell-based, Aedes aegypti, calcium fluorescence, mosquito biting behavior | Aedes aegypti neuropeptide Y-like receptor 7 (NPYLR7) | HEK293T NPYLR7/Galpha15, GCaMP6s calcium fluorescence | activation, % at 10 µM | 270,000 tested, 0.15% active | AID 1259423, 2018; in the data active = activation above about 40%;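 note: 0% = vehicle and 100% = reference agonist at the receptor; some compounds past the cut are filed as inactive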
# NPYLR7 agonist max-min = also measured in NPYLR7 agonist; calls as there; activation, %; measured here: Max-Min RFU normalised activation; some inactives read as strong as hits;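 span of the calcium signal over five minutes; 0% = vehicle and 100% = native peptide agonist; compound fluorescence can raise it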
# An asterisk follows results filed as active; & = joins results of further samples. These rows are one share of the data; count on the stated rates, not on these rows.
# Values in the order: NPYLR7 agonist max-min	NPYLR7 agonist
> CCOC(=O)c1[nH]c(C)c(C(=O)OCC(=O)N2CC(C)OC(C)C2)c1C (stereo not given)
 : -2	2
> O=C(CC1CCCCC1)NCCn1nc(-c2ccc(Cl)cc2)ccc1=O
 : -1	0
> Cc1ccccc1-n1c(Cc2ccccc2)nnc1SCc1ccc(C(=O)O)cc1
 : -10	-3
> CC1=NN(c2cccc(Cl)c2)C(=O)/C1=C\c1ccc2c(c1)OCO2
 : -12	2
> CCN(Cc1cnn(C)c1)C(=O)c1cccc(S(C)(=O)=O)c1
 : 0	4
> CCCC(C)C(=O)Nc1nc2c(s1)C(=O)CC(C)(C)C2 (stereo not given)
 : 1	3
> CCOC(=O)c1[nH]c(=O)[nH]c1CN1CCC2(CCN(C)CC2)C1
 : 0	10
> Cc1cccc(-n2nc(C(C)(C)C)cc2NC(=O)CN(C(=O)C2C[C@H]2c2ccccc2)C(C)C)c1C (stereo not given in full)
 : 14	11
> O=C1CC(NCc2ccco2)C(=O)N1c1ccc(Br)cc1 (stereo not given)
 : -19	-14
> CCN1CCOC(C(=O)NC(C#N)c2cccc(Cl)c2)C1 (stereo not given)
 : 10	10
> Fc1ccc(-c2cnc(CN3CCOC(Cn4cccn4)C3)o2)cc1 (stereo not given)
 : 2	3
> C=C(C)Cn1c(=O)c2c(nc3n(-c4ccccc4)c(C)cn23)n(C)c1=O
 : 22	-2
> CC(NC(=O)c1ccc(N)nc1)c1ccccc1Cl (stereo not given)
 : 14	18
> CCCCCN(CC(=O)N1CCc2sccc2C1c1ccccc1C)S(=O)(=O)c1ccc(F)cc1 (stereo not given)
 : 35	39
> COC(=O)CCCC(=O)NC1CC(C)(C)Cc2nc(C(C)(C)C)ncc21 (stereo not given)
 : 14	24
> C=CCN1C(=O)C2(CC(=O)N(CCCN(C)S(C)(=O)=O)C2=O)c2cc(C)ccc21 (stereo not given)
 : 10	23
> Cc1ccccc1CN1CCN(C(=O)CN2CCCC(C(=O)Nc3ccc(Cl)cn3)C2)CC1 (stereo not given)
 : 0	1
> Cc1ccc(-n2[nH]c(C)c(N=Nc3cccc(-c4cccc(C(=O)O)c4)c3O)c2=O)cc1C
 : -17	-13
> CC(Sc1n[nH]c(C(C)C)n1)C(=O)NCc1ccc(Cl)cc1 (stereo not given)
 : 15	22
> O=C(NCc1ccccc1)OCC(F)(F)F
 : 0	2
> COc1nc(-c2ccc3c(c2)OCO3)n(-c2ccc(NC(=O)c3cccc(F)c3)cc2)n1
 : 29	28
> C=CCN1CC(c2nc3ccccc3n2CCOc2ccccc2)CC1=O (stereo not given)
 : 10	5
> COC(=O)C1=COC(O[C@H]2OC(CO)[C@H](O)C(O)C2O)[C@H]2C1C(=O)C[C@@H]2C (stereo not given in full)
 : 2	2
> CCCCN(CC(=O)N1CCc2sccc2C1c1ccc(OC)cc1)C(=O)C(CC)c1ccccc1 (stereo not given)
 : 13	5
> Cc1nc(C2CC23CCNCC3)n(-c2ccncc2C)n1 (stereo not given)
 : 4	0
> Cc1ccc(CN(Cc2ccc(F)cc2)C(=O)CN(Cc2ccco2)C(=O)c2cccs2)s1
 : 1	0
> CCCc1cc(NCCN2CCOCC2)n2nc3nc(C)cc(C)c3c2n1
 : 5	3
> CC(C)Sc1ccc(CC(=O)NCC2CCN(c3ncccn3)CC2)cc1
 : -11	-11
> Cc1ccc(-c2noc(CN3CCN(C(=O)CN4CCCCCCC4=O)CC3)n2)cc1
 : -1	0
> Cc1cc(C)nc(NS(=O)(=O)c2ccc(Br)cc2)n1
 : -2&-1	-1&-1
> CC(C)(C)CC(=O)N1CCN(C(=O)N2CCCCC2)CC1
 : 7	8
> Cc1cc(C)c(C(=O)N(C)CCN(C)C(=O)c2[nH]c(C)cc2C)[nH]1
 : 0	2
> Cc1ccc(-n2ncc3c(=O)n(NC(=O)Cc4cccc(C)c4)cnc32)cc1
 : 2	4
> C=Cc1ccc(Cn2c(C)c(C(=O)NCc3cccc(Cl)c3)sc2=O)cc1
 : 5	7
> CCOC(=O)c1oc2ccccc2c1CN1C(=O)NC2(CCCC2)C1=O
 : -10	-7
> CCCCC(CC)C(=O)N(Cc1ccc2c(c1)c1ccccc1n2CC)Cc1ccco1 (stereo not given)
 : -11	-6
> O=C(OCc1cc(=O)oc2ccc3ccccc3c12)c1ccc2ccccc2n1
 : 10	3
> CCSc1nc(CC(=O)NCCc2nc(C)c(C)s2)cs1
 : -5	8
> Cc1nc(-c2ccccc2)nc(N2CCN(C(=O)c3cccs3)CC2)c1Cc1ccc([N+](=O)[O-])cc1
 : 28	22
> COC(=O)N(C)Cc1cccc(N2CCN(C(c3ccccc3)c3ccccc3)CC2)c1
 : 7	-4
> COc1ccc(C2CCCCCN2C(=O)CCn2cnc3sc(C)c(C)c3c2=O)cc1 (stereo not given)
 : -2	-3
> COc1ccc(C2Nc3cccc4cccc(c34)N2)cc1Br
 : 0	3
> CCCn1c(N2CCN(Cc3ccc(F)cc3)CC2)nc2c1c(=O)[nH]c(=O)n2C
 : -1	0
> Cc1ccc(-c2nc(N3CCCC3)c3ccc(Cl)cc3n2)cc1
 : 8	0
> NS(=O)(=O)c1ccc(Sc2ccccc2C(=O)NC2CCCCC2)cc1
 : 8	10
> CC(C)(C)c1nc(CS(=O)(=O)Cc2cccc(Cl)c2)cs1
 : -1	0
> CCOC(=O)c1ccccc1NC(=O)c1c[nH]c(=O)n(-c2cccc(OC)c2)c1=O
 : -5	-2
> CC(=O)CC1(O)C(=O)N(CCOc2ccc(C)cc2)c2ccccc21 (stereo not given)
 : 4	17
> Cc1nn(C2CCS(=O)(=O)C2)c2nc(-c3ccccc3)cc(C(=O)N3CCN(C)CC3)c12 (stereo not given)
 : 8	3
> CO[C@@H]1c2ccccc2C2(CCN(CCCOc3ccccc3)CC2)[C@H]1O
 : 5	3
> CCCCNC(=O)c1csc(CN(CCCC)C(=O)Nc2cccc(Cl)c2Cl)n1
 : 16	10
> O=C(N1CCC(n2nnc3c2CCCC3)CC1)C1(c2ccc(F)cc2)CCCC1
 : -2	-1
> COc1ccc(-c2[nH]ncc2CN2CCCN(c3ccccc3)CC2)c(F)c1
 : -3	2
> COCCCNC(=O)C(NC(=O)C1CC1)C1CCN(C(=O)c2ccccc2C)CC1 (stereo not given)
 : 17	22
> COc1ccc(-c2nc(CN(C)C(C)c3cccs3)c(C)o2)c(F)c1 (stereo not given)
 : -16	-11
> COc1ccccc1CN(C)C(C(=O)N1CCOCC1)c1ccccc1 (stereo not given)
 : 0	-3
> Cc1cc(NC(=O)c2ccc(=O)[nH]c2)ccc1N1CCCC1
 : 2	8
> Cc1nn(C)c2nc(C3CC3)cc(C(=O)NCCC3CCCC3)c12
 : 4	6
> COc1ccc(NC(=O)NCCCn2nc(-c3cccs3)ccc2=O)cc1
 : -2	-3
> Nc1ncc(Cc2ccc(Cl)cc2F)s1
 : 5	8

# Quoted at random: 6 entries already listed.
# Values in the order: NPYLR7 agonist max-min	NPYLR7 agonist
> Cc1cc(C)c(C(=O)N(C)CCN(C)C(=O)c2[nH]c(C)cc2C)[nH]1
 : 0	2
> COc1ccc(NC(=O)NCCCn2nc(-c3cccs3)ccc2=O)cc1
 : -2	-3
> CCCn1c(N2CCN(Cc3ccc(F)cc3)CC2)nc2c1c(=O)[nH]c(=O)n2C
 : -1	0
> Cc1ccccc1-n1c(Cc2ccccc2)nnc1SCc1ccc(C(=O)O)cc1
 : -10	-3
> Nc1ncc(Cc2ccc(Cl)cc2F)s1
 : 5	8
> COc1ccccc1CN(C)C(C(=O)N1CCOCC1)c1ccccc1 (stereo not given)
 : 0	-3

# Carrying on:
# Values in the order: NPYLR7 agonist max-min	NPYLR7 agonist
> CCOc1nc2ccccc2nc1N1CCOCC1
 : -1	3
> Cn1ccc2c(-c3nccc(N4CCCC(O)C4)n3)ccnc21 (stereo not given)
 : 6	15
> O=S1(=O)CCN2N=C(SCc3ccccc3F)SC2=N1
 : -3	-1
> Cc1nn(S(=O)(=O)c2ccc(C(C)(C)C)cc2)c(C)c1S(=O)(=O)N1CCCCCC1
 : 2	5
> O=C(Nc1ccc(-c2ccc(N3CCCC3)nn2)cc1)c1ccc(F)c(F)c1
 : -3	-1
> Cc1cc(C)n(C2CCN(C(=O)c3cnn4ccn(C)c34)C2)n1 (stereo not given)
 : -7	-3
> Cc1cccc(C)c1OCCCN(C)C(=O)c1ccc(-n2cnnn2)cc1
 : -7	-6
> Cc1ccccc1C1NS(=O)(=O)N=C1N (stereo not given)
 : 16	-1
> CCOC(=O)c1sc(N)c(C#N)c1COC(=O)c1ncc(Cl)c(Cl)c1Cl
 : -4	2
> CNc1ccc(-c2cc(NCc3ccccn3)nc3[nH]ccc23)nn1
 : -3	0
> OCCN1CCN(c2nc(Nc3ccc(F)cc3)c3nccnc3n2)CC1
 : 3	3
> CC(C)CCNC(=O)NC(=O)CSc1nnc(C2CC2)n1C
 : 13	5
> Cc1ccc2cc(CN(Cc3ccsc3)C3CC3)c(=O)[nH]c2c1
 : 10	24
> Nc1cccc(-c2cncc(N3CCN(Cc4ccccn4)CC3)n2)c1
 : -13	-9
> Brc1cc2c(cc1CSc1ncnc3sccc13)OCO2
 : 8	9
> Cc1ccn2c(=O)nc(SCC(=O)N3CCC(C)CC3)nc2c1
 : -3	1
> Cc1ccccc1CC(=O)NC1CCCc2c1cnn2C (stereo not given)
 : -2	-2
> CCn1c(=O)c2c(nc3n2CCN3c2ccc(C)cc2)n(C)c1=O
 : 5	14
> COc1ccc(-c2nnc(SCc3cc(Cl)c4c(c3)OCCO4)o2)c(OC)c1
 : 4	6
> Cc1cc(C)n2c(Nc3ccc(S(N)(=O)=O)cc3)nnc2n1
 : 5	9
> Cc1cc(C)cc(-n2c3ccc(NC(=O)Cc4cccc5ccccc45)cc3c(=O)n2C)c1
 : 10	21
> CSc1ccc(/C=c2/sc3nc(=O)c(Cc4ccc(F)cc4)nn3c2=O)cc1
 : 11	9
> Cc1ccccc1N1CCN(C(=O)CCC2CCCCN2C)CC1 (stereo not given)
 : -1	-2
> COc1ccc(C2CC(O)=C(C#N)c3nc4ccccc4n32)cc1 (stereo not given)
 : 1	1
> O=C(Cc1csc(Nc2ccc(OC(F)(F)F)cc2)n1)NC1CCCC1
 : 6	13
> Cc1ccc(S(=O)(=O)N2C(=O)[C@@H](C)[C@H]2c2ccccc2)cc1
 : 0	-6
> C#CCSc1nc(C)c2cc(OC)ccc2n1
 : -14&6	-8&8
> CCOC(=O)C1(C)C(=O)OC(c2ccc(Cl)cc2Cl)C(C)(C)C1=O (stereo not given)
 : -23	-17
> CN(C)c1nc2c(c(=O)[nH]1)CCN(C(=O)c1cccc(-c3cn[nH]c3)c1)C2
 : -8	-2
> O=C(CN1C(=O)c2ccccc2C1=O)N1CCOCCOCCOCCOCC1
 : 9	9
> Cc1c(C)n2c3c(=O)n(CCN4CCOCC4)c(=O)n(C)c3nc2n1C1CCCC1
 : -12	-13
> COc1ccc(S(=O)(=O)Oc2ccc(CNCC3CCCO3)cc2)cc1 (stereo not given)
 : -12	-5
> Cc1csc(C(C)NC(=O)NC(C)c2ccc(F)cc2F)n1 (stereo not given)
 : -3	-4
> CN1C(=O)NC(c2cccc(F)c2)C2=C1CN(Cc1ccco1)C2=O (stereo not given)
 : 7	-2
> CC(=O)n1c(O)c(N=NC(=O)COc2ccc3ccccc3c2)c2ccccc21
 : -8	-4
> C=CCN1CCN(C(=O)c2sccc2N(C)S(=O)(=O)c2c(C)cc(C)cc2C)CC1
 : -2	-1
> CCOCCCC(=O)N1CCC(=O)Nc2ccccc21
 : -7	-6
> CCOC(=O)C1CCN(Cc2nc3scc(-c4ccc(Cl)cc4)c3c(=O)[nH]2)CC1
 : 15	11
> COc1ccc(CCNC(=O)c2cccnc2N2CCN(C(=O)c3cc(C)oc3C)CC2)cc1OC
 : -11	0
> COc1ccc(NC(=O)N(CCCN2CCOCC2)CC(=O)N(Cc2ccc(F)cc2)Cc2ccco2)c(OC)c1
 : 1	-3
> Cc1ccccc1-c1noc(CCC(=O)NC(C)Cc2ncccc2C)n1 (stereo not given)
 : 3	6
> Cc1nc(CNC(=O)c2ccc(OC3CCN(S(C)(=O)=O)CC3)c(Cl)c2)cs1
 : -4	-1
> CCN(CC)C(=O)Cn1cc(-c2nc(-c3ccccc3C)no2)nn1
 : 8	10
> COCCNC(=O)C1(C)CCCN(Cc2cccs2)C1 (stereo not given)
 : 0	2
> CCCc1cc(C(=O)N2CCCC(O)(CN(C)C)C2)ccn1 (stereo not given)
 : -4	-2
> Cc1ccc(-n2c(SCc3nc(C(=O)N4CCC(n5c(=O)[nH]c6ccccc65)CC4)cs3)nnc2-c2ccncc2)cc1
 : 15	18
> CCOC(=O)C1CCN(c2c(S(=O)(=O)c3ccccc3)cnc3ccccc23)CC1
 : 8	8
> CN(Cc1ccccc1)c1cc(-c2ccccc2)nc(SCc2ccc(C(=O)NCc3ccncc3)cc2)n1
 : 9	7
> CCSc1nnc(NC(=O)CN2CCCC2c2ccccn2)s1 (stereo not given)
 : 1	3
> CC1(C)CC(n2c(NN)nc3c(c2=O)C2(CCCCC2)Cc2ccccc2-3)CCO1 (stereo not given)
 : -19	-9
> O=S(=O)(c1cccs1)N1C[C@H](O)C2C[C@H]1CC[C@H]2O
 : 8	4
> CSCC(=O)Nc1nc(-c2ccc(N(C)S(C)(=O)=O)cc2)cs1
 : -1	-1
> CC(CN1CCc2ccccc2C1)Nc1nccc(N2CCC(O)CC2)n1 (stereo not given)
 : -5	-1
> CC(C)(C)C(O)CN1CCC(=O)N(C2CCCC2)Cc2cc(F)ccc21 (stereo not given)
 : 12	6
> COc1ccc(OC)c(-c2cnc(-c3ccc(CNC(=O)c4ccc(N(C)C)cc4)cc3)[nH]2)c1
 : 11	1
> CCCOc1cc(S(=O)(=O)N(C)C)ccc1Cl
 : 6	8
> CCCc1cc(=O)[nH]c(SCc2cn3cccc(C)c3n2)n1
 : -2	-2
